Assay outcomes from PubChem.
CSC inhib = cancer stem cell inhibition; cancer stem cell-like cells viability, luminescence; inhibition, % at 7.5 µM; 1.1% of 300,000 active; AID 2717;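 active = mean at 75% or more and at least half the replicates too; inconclusive = mean and replicates disagree; tested in HMLE shEcad cells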;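 note: 0% = median of negative and 100% = median of positive control wells; the first replicate is given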
Rce1 inhib = yeast Ras-converting enzyme inhibition; AID 2563; calls only; Q03530; yeast membranes, quenched prenylated peptide cleavage fluorescence; 0.27% of 290,000 active;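 active = fall in fluorescence gain of 50% or more versus controls, with final raw signal at or below 3038400; inconclusive = same 50% fall but final raw signal above 3038400; inactive = fall in fluorescence gain under 50%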;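 note: plate controls were neutral control wells for no effect and wells lacking membranes for full effect; tested at 10 µM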
UUG fidelity = alters start codon recognition fidelity in yeast; S. cerevisiae UUG-firefly luciferase reporter, luminescence/redox ratio; activity score, % at 18.7 µM; 0.13% of 350,000 active; AID 602363;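 active = replicate mean at a twofold rise or more, about +100% in these data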;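 note: firefly luciferase made from a UUG start codon reports start codon fidelity; reporter light over untreated wells divided by growth signal over untreated wells; some hits fall short of that in this replicate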
MT1-MMP act inh = blocks activation of human MT1-MMP; P50281; HT1080 RFP-PRO-GFP cells, GFP/RFP ratio fluorescence, overnight; percent of plate control window, DMSO zero; GFP/RFP ratio change, % at 20 µM; 0.061% of 360,000 active; AID 651647;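 active = GFP/RFP ratio change of at least 30% with cell ATP level not reduced by more than half and red fluorescence within 50% of control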; note: strong numbers were not always called active
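Test system: HT1080 cells expressing an RFP-PRO-GFP fluorescent reporter construct / Compound dosing: single-point 20 µM compound, 1% DMSO / Schedule: cells overnight before dosing, compound overnight, 37 °C, 5% CO2 / Evaluation: GFP/RFP fluorescence ratio / Control set: DMSO and RFP-L50D-GFP cell wells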
eIF4H FP inh = inhibitors of RNA binding by human eIF4H; 0.94% of 290,000 active; AID 2012; eIF4H fluorescence polarization binding assay; inhibition, % at 35 µM; Q15056;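 active = 50% or more with normal probe brightness, or confirmed in later tests; inconclusive = above 50% with abnormal brightness, or retests that disagree; inactive = below 50% or failed in later tests; about a fifth of its hits are not listed in these tables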;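 note: calls also rest on retests at 20 µM and on dose response follow-up; 0% = protein and probe with vehicle and 100% = probe without protein; strong numbers were not always called active; many hits fall short of the cut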
PABP polyA inh = PABP-poly(A) binding inhibition | P11940 | PABP-poly(A) RNA binding, fluorescence polarization | inhibition, % at 35 µM | 1% of 290,000 active;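 active = 50% or more with normal probe brightness, or confirmed in later tests; inconclusive = above 50% with abnormal brightness, or retests that disagree; inactive = below 50% or failed in later tests; about a fifth of its hits are not listed in these tables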;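 note: calls also rest on retests at 20 µM and on dose response follow-up; controls were probe without protein and protein plus probe with vehicle; some compounds called inactive have numbers as strong as hits; many hits fall short of the cut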
Target sequence (P11940 whole entry, looked up): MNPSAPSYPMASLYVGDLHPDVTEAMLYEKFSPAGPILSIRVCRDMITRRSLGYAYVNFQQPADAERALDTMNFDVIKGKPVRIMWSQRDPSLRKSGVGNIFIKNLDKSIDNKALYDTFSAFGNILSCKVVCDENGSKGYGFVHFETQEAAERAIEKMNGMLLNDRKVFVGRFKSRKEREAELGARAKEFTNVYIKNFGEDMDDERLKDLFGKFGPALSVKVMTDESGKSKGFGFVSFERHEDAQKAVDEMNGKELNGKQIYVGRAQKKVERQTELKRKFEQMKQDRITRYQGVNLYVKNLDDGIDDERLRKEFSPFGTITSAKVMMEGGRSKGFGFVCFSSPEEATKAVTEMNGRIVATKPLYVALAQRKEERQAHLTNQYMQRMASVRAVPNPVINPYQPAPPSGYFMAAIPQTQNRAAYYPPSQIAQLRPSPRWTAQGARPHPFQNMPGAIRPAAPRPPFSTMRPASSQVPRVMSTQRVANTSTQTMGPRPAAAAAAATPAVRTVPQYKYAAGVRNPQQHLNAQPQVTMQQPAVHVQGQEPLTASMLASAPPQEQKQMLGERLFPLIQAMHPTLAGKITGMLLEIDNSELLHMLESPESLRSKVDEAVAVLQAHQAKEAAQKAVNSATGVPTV
Env fusion inh = inhibitors of HIV Env-mediated cell fusion | HeLa-JRFL Env/CEM21 cell fusion, luciferase | inhibition, % at 12.3 µM | 1.1% of 360,000 active;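 active = mean replicate inhibition score of at least 50 and every replicate individually at or above 50; inconclusive = only one of the two criteria met; inactive = mean below 50 and not all replicates reaching 50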;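 note: 0% = plate neutral controls and 100% = maraviroc near 300 nM; one replicate is shown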
MT1-MMP act inh RFP = also measured in MT1-MMP act inh; calls as there; RFP signal change, %; measured here: RFP expression control read;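 0 = vehicle wells; hits needed this value within 50% of zero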
Active calls of the source: *; i = inactive; u = inconclusive; x = not tested or not shown.

SMILES | CSC inhib | Rce1 inhib | UUG fidelity | MT1-MMP act inh | MT1-MMP act inh RFP | eIF4H FP inh | PABP polyA inh | Env fusion inh
O=C(N[C@H]1C/C=C\C(c2cccc(F)c2)N(Cc2ccccc2)C(=O)C1)OCC1c2ccccc2-c2ccccc21 (stereo partly specified) | x | x | 6 | 4 | 7 | x | x | -76
CC(C(=O)c1c[nH]c(C(N)=O)c1)c1ncc(C(F)(F)F)cc1Cl (stereo unspecified) | -6 | i | x | -1 | 1 | -3 | 7 | 3
CCc1cc(=O)oc2c(CN3CCN(C)CC3)c(O)ccc12 | -4 | i | -19 | -1 | -2 | 17 | -11 | 3
CC(=O)Nc1ccc(NC(=O)C(C)OC(=O)/C=C/c2ccc3c(c2)OCO3)cc1 (stereo unspecified) | -4 | i | -15 | 2 | 2 | x | x | -21
COC(c1ccccc1)c1nnc(CCC(=O)N2CCN(C3CCCC3)CC2)o1 (stereo unspecified) | 9 | i | -14 | -1 | 0 | -6 | -4 | 7
c1ccc2c(c1)Cc1cc(CN3CCOCC3)ccc1-2 | -14 | i | -10 | 5 | 5 | 2 | -6 | -53
Cc1ccccc1OCCCc1c(C)n[nH]c1C | -13 | i | x | -2 | -5 | -11 | -3 | -107
Cc1cccc(NC(=O)CN2CCN(C(=O)CN3C(=O)NC4(CCCCC4C)C3=O)CC2)c1C (stereo unspecified) | x | x | -3 | 0 | -4 | x | x | -8
S=C1NC(C23CC4CC(CC(C4)C2)C3)=CC(c2ccc3c(c2)OCO3)N1 (stereo unspecified) | -6 | i | x | 11 | 2 | -5 | 3 | 11
COc1ccc(-c2ccc(C(=O)NC(C)C)c3occc23)c(C)c1 | x | x | -30 | 2 | -8 | x | x | 16
CCN(CC(=O)Nc1ccc(NC(C)=O)cc1)C(=O)/C=C/c1cn(-c2ccccc2)nc1-c1ccc(F)cc1 | -13 | i | x | -1 | -3 | x | x | -46
CSCCC1C(C#N)=C(N)Oc2n[nH]c(-c3cccs3)c21 (stereo unspecified) | 21 | i | -18 | 10 | 15 | 5 | 9 | -195

Whole records as entered above. Values in the order: CSC inhib, Rce1 inhib, UUG fidelity, MT1-MMP act inh, MT1-MMP act inh RFP, eIF4H FP inh, PABP polyA inh, Env fusion inh
Results for `CCc1cc(=O)oc2c(CN3CCN(C)CC3)c(O)ccc12` : -4, i, -19, -1, -2, 17, -11, 3
Results for `CSCCC1C(C#N)=C(N)Oc2n[nH]c(-c3cccs3)c21` (stereo unspecified) : 21, i, -18, 10, 15, 5, 9, -195
Results for `CCN(CC(=O)Nc1ccc(NC(C)=O)cc1)C(=O)/C=C/c1cn(-c2ccccc2)nc1-c1ccc(F)cc1` : -13, i, x, -1, -3, x, x, -46
Results for `O=C(N[C@H]1C/C=C\C(c2cccc(F)c2)N(Cc2ccccc2)C(=O)C1)OCC1c2ccccc2-c2ccccc21` (stereo partly specified) : x, x, 6, 4, 7, x, x, -76

Other entries.
SMILES | CSC inhib | Rce1 inhib | UUG fidelity | MT1-MMP act inh | MT1-MMP act inh RFP | eIF4H FP inh | PABP polyA inh | Env fusion inh
Cc1cccc(NC(=O)CN(C)S(=O)(=O)c2ccc(-c3ccc(=O)[nH]n3)s2)c1C | 1 | i | 3 | -1 | -1 | -3 | -5 | -1
COCCN(C(=O)CCC(=O)Nc1cc(C)on1)C(C(=O)NC1CCCC1)c1ccc(C)cc1 (stereo unspecified) | -9 | i | -8 | -3 | 3 | -10 | 6 | 11
COc1ncnc2c1ncn2CCCNCC(C)c1ccccc1 (stereo unspecified) | x | x | -19 | 8 | 11 | x | x | -18
COc1cccc(N2CC(C(=O)Nc3nnc(SCC(=O)c4ccccc4)s3)CC2=O)c1 (stereo unspecified) | -1 | i | x | -1 | -1 | -7 | -1 | x
CC(c1nnc(SCC(=O)N2CC(=O)Nc3ccccc32)n1Cc1ccccc1)N(C)C (stereo unspecified) | 11 | i | 3 | 7 | -1 | -2 | -2 | x
O=Cc1c(NCCN2CCCC2)c2ccccc2[nH]c1=O | -15 | i | -2 | 1 | 2 | -2 | 6 | -11
CNC(=O)/C(C#N)=C\c1ccc(CNS(=O)(=O)c2ccc(Cl)cc2)o1 | -13 | i | x | 0 | 3 | 3 | 62* | -2
O=C1CC(c2ccccc2)CC(=O)C1=CN1CCCC1 (stereo unspecified) | 1 | i | 3 | 3 | 1 | -1 | -7 | -4
Cc1cc(C(F)F)nn1CC(=O)NCc1ccccc1F | 4 | i | -15 | -4 | -1 | 6 | -9 | -11
O=C(Cn1cnc2ccccc21)Nc1cc(C(F)(F)F)ccc1N1CCOCC1 | -7 | i | -18 | 3 | 1 | -4 | -12 | 15
Cc1ccc(C(=O)COC(=O)c2cc(Cl)nc3ccccc23)cc1 | -8 | i | -16 | 2 | 8 | 0 | -4 | -23
O=C(CN1CCCCC1)Nc1cc(S(=O)(=O)N2CCOCC2)ccc1N1CCCC1 | x | x | -5 | 1 | 0 | x | x | -1
CN1CCN(C(=O)C2CCCN(S(=O)(=O)c3ccc(Br)cc3)C2)CC1 (stereo unspecified) | -2 | i | 7 | -2 | -4 | 0 | -14 | 9
Cc1ccc(CSCC(=O)N/N=C/c2cccc(OC3CSC3)c2)cc1 | 6 | i | 10 | 1 | -6 | -3 | -3 | 7
O=C(COC(=O)c1cccc(S(=O)(=O)N2CCCC2)c1)Nc1ccccc1C(F)(F)F | x | x | -12 | 7 | 1 | x | x | 15
O=C1C=C(/C=C/c2ccccc2)C[C@@H](c2ccc3c(c2)OCO3)C1 | 57 | x | -5 | 7 | -2 | x | x | -25
CC(=O)C(C(C)=O)C(NC(=O)c1cccnc1)(C(F)(F)F)C(F)(F)F | -4 | i | -1 | 1 | 5 | -6 | -1 | x
CCc1nc2ccc(C(=O)N3CCN(S(=O)(=O)CC)CC3)cn2c1N(CC)C(=O)NCCc1ccccc1 | x | x | -15 | 3 | 6 | x | x | -29
O=C(Cc1ccccc1)Nc1ccc(NC(=O)C2CC2)nc1 | -6 | i | -12 | 4 | 0 | -1 | 3 | x
O=c1cc(C(F)(F)C(F)F)oc2ccccc12 | -6 | i | -8 | -2 | 1 | 3 | 10 | x
Cc1cc(C)c(/C=N/n2c(C)cc(C)c(C#N)c2=O)c(C)c1 | -14 | i | x | 4 | 5 | -8 | 4 | 6
COc1ccccc1N1CCN(C(=O)C2CCN(C(=O)c3cccc(Cl)c3)CC2)CC1 | 4 | i | 4 | 7 | -7 | 0 | 9 | 30
COc1ccc(NC(=O)c2cc(-c3ccc4c(c3)OCO4)on2)cc1OC | 11 | i | -7 | 3 | 2 | 1 | 4 | -7
Cc1nn(C)c(C)c1S(=O)(=O)N(CC(=O)NCCN1CCOCC1)c1ccc(C(C)C)cc1 | -5 | x | 1 | 3 | 7 | 2 | -2 | -2
COc1cc(C(=O)Nc2cc(C)ccn2)ccc1OCC(=O)N1CCOCC1 | x | i | 4 | -2 | 1 | -6 | -5 | -17
CC12CCCC(=O)C1CCC(=Cc1ccco1)C2=O (stereo unspecified) | x | x | -7 | -2 | 2 | x | x | 8
O=C(CCCCn1c(=O)c2ccccc2n(CC(=O)Nc2ccc(F)cc2)c1=O)NCc1ccco1 | -19 | i | 32 | -5 | 3 | -2 | 3 | x
COc1ccc(Cl)cc1C(=O)OCC(=O)Nc1cccnc1Cl | -5 | x | -16 | -2 | 6 | x | x | x
O=C(Nc1ccc2c(c1)OCO2)C1Cc2ccccc2CN1S(=O)(=O)c1cccs1 (stereo unspecified) | -5 | i | -4 | 1 | -5 | 44 | -9 | -126
C[C@@]12C(=O)N(CC3CC3)CC(=O)N1[C@H](C1CC1)[C@@H]1C(=O)N(c3ccccc3)C(=O)[C@@H]12 | 0 | i | -13 | 1 | 1 | 13 | 14 | 7
CC(CCn1cccn1)NC(=O)CCc1nnc(CCc2ccccc2)o1 (stereo unspecified) | -1 | i | x | -1 | 2 | -2 | -17 | 4
CC(C)c1ccc(NC(=O)C(c2ccccc2)N(Cc2ccco2)C(=O)CC2NC(=O)NC2=O)cc1 (stereo unspecified) | -11 | i | x | -4 | -4 | -10 | -2 | 14
Cc1ccc2c(c1)/C(=C/c1ccccc1C)C(=O)N2 | 9 | i | -1 | -3 | -8 | 2 | -1 | -10
COC(=O)c1sc(S(=O)(=O)NCCCN(C)C)c(C(=O)OC)c1C | -5 | i | -9 | 1 | 0 | 9 | 16 | 17
OCc1cc(Br)ccc1OCc1nc2ccccc2s1 | 5 | i | -18 | 3 | -3 | -1 | -8 | x
Cc1ccccc1OCCC(=O)N1CCN(S(=O)(=O)c2ccc(F)cc2)CC1 | -5 | i | -1 | 2 | 1 | -17 | -12 | 12
CN(C)S(=O)(=O)c1cccc(NC(=O)CN2C(=O)NC(Cc3c[nH]c4ccccc34)C2=O)c1 (stereo unspecified) | 13 | i | x | -1 | 0 | -2 | -1 | 4
CCn1c(=O)c2cc(C(=O)N(C)c3cc(C)ccc3OC)sc2c2ccccc21 | 49 | i | -8 | -9 | -7 | -13 | 4 | -1
Cc1oc(S(=O)(=O)N(C)C)cc1C(=O)Nc1ccc(F)cc1 | -2 | i | -1 | -1 | -8 | 5 | -5 | -2
O=C(C1CC1)N1N=C(C2CCCCC2)CC1(O)C(F)(F)F (stereo unspecified) | -8 | i | x | 4 | 1 | -6 | -2 | -8
COc1ccc(C(C)(NC(C)=O)c2nc(/C=C/c3ccccc3)cs2)cc1 (stereo unspecified) | x | x | -7 | 3 | -2 | x | x | 0
CNC(=O)c1ccsc1NC(=O)c1ccc(S(=O)(=O)N2CCc3ccccc32)cc1 | 44 | i | 34 | 5 | -11 | 8 | 9 | 3
Cc1cc(NC(=O)CSc2nnc(-c3cccs3)n2N)no1 | -7 | i | -9 | -7 | -1 | 9 | 7 | x
CCn1c2ccccc2c2cc(NC(=O)c3ccco3)ccc21 | 27 | i | -26 | 13 | 4 | -4 | -15 | x
CCN(C(=O)CSc1nnc(-c2c[nH]c3ccccc23)o1)C1CCS(=O)(=O)C1 (stereo unspecified) | 2 | i | 3 | 2 | 1 | -6 | 2 | 1
Cc1cc(-c2ccccc2)nc(N/N=C/c2cccnc2)n1 | 1 | i | -22 | 4 | 0 | 1 | -3 | -3
COc1ccc(CN2C(=O)C(=O)N(CC(N)=O)C2=O)cc1 | 7 | i | x | 0 | 5 | -5 | u | 7
O=C1C(C2=NC(c3ccccn3)C3C(=O)N(c4ccc(OC(F)(F)F)cc4)C(=O)C23)=C(O)c2ccccc21 (stereo unspecified) | 30 | i | x | -3 | -8 | 0 | -14 | -1
COc1cccc(CN(C(=O)c2ccccc2Br)C2CCS(=O)(=O)C2)c1 (stereo unspecified) | 5 | i | 9 | -3 | 2 | -7 | 12 | 4
COc1cccc(NC(=O)c2ccc3c(O)c(S(=O)(=O)c4ccccc4)c(=O)[nH]c3c2)c1 | -4 | i | -6 | 2 | 5 | -2 | 22 | 1
Cc1ccc(-c2ocnc2C(=O)Nc2ccccc2NC(=O)c2ccccn2)cc1 | 7 | i | -27 | -6 | -8 | 0 | 2 | 14
CC(C)CCN=Cc1c(O)n(-c2ccccc2)c(=O)c2ccccc12 | -11 | i | -21 | 5 | 2 | -11 | 4 | x
COc1cccc(CN(C)CC2CCCN(CCc3ccc(Cl)cc3)C2)c1OC (stereo unspecified) | 24 | i | -14 | 1 | 2 | 4 | 9 | 25
CCOc1ccc(-n2cc(-c3ccccc3)c3c(=S)nc[nH]c32)cc1 | 32 | i | -27 | 9 | 6 | 6 | 1 | 13
O=C1CCCN1c1ncc(S(=O)(=O)c2ccc([N+](=O)[O-])cc2)s1 | -12 | i | x | 0 | -5 | -8 | -8 | -7
O=C(CCl)N1CCN(CC(=O)N2CCCC2)CC1 | -17 | i | -1 | 2 | 0 | 5 | 17 | -1
